SmPrx2 inh: blocks S. mansoni peroxiredoxin 2 enzymatic activity. S. mansoni Prx2 activity coupled to TGR/GSH (TGR is thioredoxin glutathione reductase), NADPH fluorescence loss, qHTS; some inactives read as strong as hits. Potency, µM. hit rate 0.07% among 65,000; active means full or partial inhibition curve with a strong effect at the top dose; inconclusive means weaker partial or single-point curve; inactive means no accepted curve; also: series up to 57 µM; many of its hits are not listed in these tables
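Prx2 activity was followed as the loss of NADPH fluorescence (ex 365/em 450 nm), read every 30 sec for 8 min after H2O2 start. The enzyme mix (50 nM Prx2, 25 nM TGR, GSH, NADPH; pH 7.4 phosphate buffer) was incubated with compound for 15 min at room temperature first.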
LT uptake inh: anthrax lethal toxin internalization inhibition | hit rate 0.67% among 70,000 | Potency, µM (highest dose often 40 µM), without a hit: at the highest dose activity change, negative = inhibition, actives largely listed as inhibitors | Cells, anthrax lethal toxin internalization, FRET ratio (460/530); active = well fitted falling ratio curve with the 530 nm signal flat; inconclusive = other ratio curves, or a change in one channel alone; inactive = flat curves in the ratio and both channels; the % refers to the ratio; also: % is scaled to controls: 0 for no effect and ±100 for the full control effect; nearly all actives have a fitted effect of over 50% in size; tested in ME-180 cells; beta-lactamase reporter
* hit, by the source's call; ? = inconclusive; nt = no result given; & = joins results of further samples; [ ] = dose if it differs, or a comment. Potency is read from the fitted curve at half-maximal effect.

Molecule,SmPrx2 inh,LT uptake inh
COc1cc(OC)nc(NC(=O)CS(=O)(=O)c2ccccc2)n1,>57,9%
CCc1[nH]nc2c1C1(CCN(C(=O)c3ccccc3)CC1)C(C#N)=C(N)O2,>57,4%
Fc1ccc(-c2csc3nnc(SCc4cccnc4)n23)cc1,>57,-4%
CCc1cccc(NC(=O)CS(=O)Cc2nc(-c3ccc(C)cc3)oc2C)c1 (stereo not given),?,?
CNC(=O)CSc1nnc(-c2ccc(S(=O)(=O)N3CCCC3)cc2)n1-c1cccc(C)c1C,>57,-5%
O=C(Nc1cccnc1)c1cc(-c2ccc3c(c2)OCO3)on1,>57,-3%
CC1=C(C(=O)Nc2ccccn2)C(c2ccc(F)cc2)n2ncnc2N1 (stereo not given),>57,2%
O=C(CSc1nnc(-c2ccccn2)n1Cc1ccccc1)N1CCCC1,>57,13%
COCCn1nnnc1C(c1ccccc1Cl)N1CCN(c2ccccc2OC)CC1 (stereo not given),>57,-24%
O=C(O)c1ccccc1C(=O)Nc1ccccc1,>57,-6%
CCN(CC)CCCN=Cc1c(O)n(CCc2ccc(F)cc2)c(=O)[nH]c1=O,>57,?
CCCCOc1ccc(C2CC(=O)NC2=O)cc1 (stereo not given),>57,-17%
Cc1ccc(CN2CCC(C(=O)NCCC(C)C)CC2)o1,>57,-21%
CC(=O)c1c(C)n([O-])c2ccc(C)cc2[n+]1=O,>57,5%
O=C(Nc1cccc(F)c1)N1CCC2(CC1)CCN(C(=O)c1ccco1)CC2,>57,?
Cc1ccc(C(=O)CC2(O)C(=O)N(C)c3ccc(Br)cc32)c(C)c1 (stereo not given),>57,-14%
COc1ccc(Cc2nnc(SCC(=O)NC(C)c3ccccc3)o2)cc1 (stereo not given),nt,-4%
CCCCC(CCC(=O)Nc1ccccc1C(=O)OCC)C(=O)O (stereo not given),>57,-12%
Cn1cc(C(F)(F)F)nc1-c1ccc(OC[C@@H](O)CNCCOc2ccc(O)c(C(N)=O)c2)cc1,>57&>57,2%&-2%
COC(=O)CC(C(=O)Nc1cc(C(=O)OC)cc(C(=O)OC)c1)N1CCN(C)CC1 (stereo not given),>57,-5%

6 compounds picked at random from those above:
Molecule,SmPrx2 inh,LT uptake inh
O=C(CSc1nnc(-c2ccccn2)n1Cc1ccccc1)N1CCCC1,>57,13%
Cc1ccc(CN2CCC(C(=O)NCCC(C)C)CC2)o1,>57,-21%
COCCn1nnnc1C(c1ccccc1Cl)N1CCN(c2ccccc2OC)CC1 (stereo not given),>57,-24%
COC(=O)CC(C(=O)Nc1cc(C(=O)OC)cc(C(=O)OC)c1)N1CCN(C)CC1 (stereo not given),>57,-5%
O=C(Nc1cccnc1)c1cc(-c2ccc3c(c2)OCO3)on1,>57,-3%
COc1ccc(Cc2nnc(SCC(=O)NC(C)c3ccccc3)o2)cc1 (stereo not given),nt,-4%

Next section.
Molecule,SmPrx2 inh,LT uptake inh
Cc1ccc(S(=O)(=O)N(CC(=O)N2CCCC2)C2CCCCC2)cc1,nt,?
Cn1c(-c2ccc3c(c2)OCO3)cnc1NC(=O)CCC(=O)NCCc1ccccc1,>57,-1%
COc1cc2c(C(=O)Nc3ccc4c(c3)OCO4)cn(CC(C)C)c(=O)c2cc1OC,nt,-12%
O=C(NCCCn1ccnc1)c1ccco1,>57,16%
CCC(C)[C@H](NC(=O)NCc1ccccc1Cl)C(=O)OC (stereo not given in full),>57,2%
Nc1ccc(-c2ccc(Nc3cc(S(=O)(=O)O)c(N)c4c3C(=O)c3ccccc3C4=O)cc2)c(S(=O)(=O)O)c1,>57,-14%[8 µM]
O=C(CCCOc1ccccc1)NCC1CCCO1 (stereo not given),>57,-3%
CC1(C)CC(=O)C2=C(C1)OC(N)=C(C#N)C21CCC2(CC1)OCCO2,>57,?
COC(=O)Nc1ccc(S(=O)(=O)N2CCCC(C(=O)Nc3cccc4c3OCCO4)C2)cc1 (stereo not given),>57,8%
O=C(CSc1nnnn1-c1ccccc1)c1cc2ccccc2oc1=O,>57,0%
CCOC(=O)N1CCN(c2c(NCCCN(CC)c3cccc(C)c3)c(=O)c2=O)CC1,>57,1%
C(=Nc1ccc2c(c1)Cc1ccccc1-2)c1ccccn1,>57,-2%[8 µM]
Cc1nc(=O)c(-c2ccccc2)c(C)n1CCCO,>57,?
Cn1c(=O)cc(SCC(=O)Nc2ccc3c(c2)OCO3)c2ccccc21,>57,-2%
N=c1c2c3c(sc2nc2n1CCC2)CCCC3,>57,5%
CCOCC(=O)O,nt,-2%
CCOC(=O)Nc1ccc(C)cc1Br,>57,-4%
CC1=CS/C(=C(/C#N)C(=O)N2CCOCC2)N1c1ccccc1,nt,-3%
CCOC(=O)N1CCN(Cc2c(F)cccc2Cl)CC1,nt,-12%
CCOC(=O)Cc1csc(NC(=O)CSc2nnc(C(C)C)n2CC)n1,>57,0%
COc1ccc(Cn2c(-c3ccco3)nc3oc4cc(OC)ccc4c(=O)c3c2=O)cc1,>57,3%
Cc1cc(C)nc(NC(=O)Cc2cccs2)n1,>57,-4%
C=CCNc1oc(-c2ccc(OC)cc2)nc1C#N,>57,-4%
CC(=O)Nc1nonc1C(=O)N1CCC(C)CC1,>57,-3%
C[C@H](N)C(=O)OC(C)(C)Cc1ccc(Cl)cc1,>57,10%
COc1cc2[nH]c(=O)n(CCC(=O)N3CCN(c4cc(Cl)ccc4C)CC3)c(=O)c2cc1OC,?,7%
O=C1c2cccnc2C(=O)N1C1CCCCC1,>57,-2%
CC1CN(Cc2nc3c(c(=O)n(C)c(=O)n3C)n2CCN2CCOCC2)CC(C)O1 (stereo not given),>57,?
Cc1ccc(-c2nc3ncccn3c2Nc2ccc3c(c2)OCCO3)o1,>57,12%
CN1[C@H](CC(=O)c2ccccc2)CCC[C@H]1C[C@H](O)c1ccccc1,>57,?
Cc1sc2nc3n(c(=O)c2c1C)CCCS3,>57,26%
COc1ccc(S(=O)(=O)N(C)CC(=O)N2CCC(C(N)=O)CC2)cc1Cl,>57,?
CC1=C(C(=O)OC(C)C)C(c2ccccn2)n2ncnc2N1 (stereo not given),>57,14%
Cc1ccc(S(=O)(=O)Cn2nnnc2C(c2ccccc2)N2CCN(c3ncccn3)CC2)cc1 (stereo not given),>57,2%
CS(=O)(=O)N1CCN(C(=O)C2c3ccccc3Oc3ccccc32)CC1,>57,?
O=C(CSc1nnc(-c2ccco2)n1Cc1ccco1)N1CCOCC1,>57,-10%
COc1cccc(-n2cnc3scc(-c4cccs4)c3c2=O)c1,>57,-7%
CCCS(=O)(=O)N1CCC(C(=O)NC2CCCCC2C)CC1 (stereo not given),>57,-13%
CCc1nnc(NC(=O)CSc2nnc(-c3ccco3)n2CC)s1,>57,4%
O=C(c1ccco1)N1CCC[C@@]2(CCN(C(c3ccccc3)c3ccccc3)C2)C1,>57,?
CN1CCN(CCC(=O)Nc2cccc(F)c2)CC1,>57,3%
O=C(O)c1cccc(C(=O)O)n1,>57,2%
CCn1c(SCC(=O)N2CCN(c3ccccc3F)CC2)nnc1-c1ccoc1C,>57,-13%
COc1ccc(N2C(=O)CSC2c2ccc3c(c2)OCO3)cc1 (stereo not given),>57,-7%
O=C(CCNS(=O)(=O)c1cccc2nsnc12)NC1CCCc2ccccc21 (stereo not given),>57,-20%
COC(=O)[C@@]1(Cc2ccc(OC)cc2)[C@H]2c3cc(C(=O)N4CCCC4)n(CCc4ccc(O)c(O)c4)c3C[C@H]2CN1C(=O)c1ccccc1,nt,?
COc1ccc(-c2ccc(-c3noc(-c4ccccc4F)n3)c(OC)n2)cc1,>57,2%
O=C(c1ccc(CS(=O)(=O)c2ccc(Br)cc2)o1)N1CCCC1,>57,-4%
Cc1ccc2c(c1)C(O)(CC(=O)c1ccc3c(c1)OCO3)C(=O)N2 (stereo not given),>57,?
COC(=O)c1cc(-c2ccc(Br)cc2)n[nH]1,>57,-8%
CC(C)(C)c1cc(C(=O)N2CCN(c3ncccn3)CC2)ccn1,>57,7%
Cc1ccc2ccccc2c1,nt,-4%
Cc1ccc(NC(=O)Cn2nc(C)cc2C)cc1,>57,-15%
Cn1c(-c2ccco2)nc2cc3ccccc3cc21,>57,-9%
CCOC(=O)C1=C(C)Nc2nc(SC)nn2C1c1ccc(C(=O)OC)cc1 (stereo not given),>57,7%
CCCOC(=O)c1ccc(NC(=O)C2C3C=CC(O3)C2C(=O)O)cc1 (stereo not given),nt,4%
CCC[C@@H]1C[C@@]1(CCC)C(NC(=O)c1ccccc1)c1cccc(Cl)c1 (stereo not given in full),>57,?
CC1CN(c2cc(=O)n(Cc3ccc(F)cc3)c(=O)[nH]2)CC(C)O1 (stereo not given),>57,1%
O=C(CC(c1ccccc1)c1cc(Br)ccc1O)NCCN1CCOCC1 (stereo not given),>57,0%
N#Cc1cc2c(nc1SCC(=O)N1CCCCC1)CCCC2,>57,-1%

The listing continues:
Molecule,SmPrx2 inh,LT uptake inh
O=C(NC(c1ccccc1)c1ccccc1)C1CCCN(S(=O)(=O)c2cnc[nH]2)C1 (stereo not given),>57,3%
O=C(NC1CCCCC1)C1CC(O)CN1C(=O)OCc1ccccc1 (stereo not given),>57,6%
COC(=O)CSc1nnc(-c2ccc(OC)cc2OC)o1,>57,?
CC1Cc2nc(SCC(=O)Nc3ccc4c(c3)OCCO4)n(C)c(=O)c2S1 (stereo not given),>57,26%
CN(C)c1cc[n+](Cc2ccccc2)cc1,>57,-1%
Cc1nc2nc3c(c(=O)n2[nH]1)CCC3,>57,?
Cc1nc2nc[nH]n2c(=O)c1NC(=O)CC12CC3CC(CC(C3)C1)C2,>57,?
CC1CN(c2cc(=O)n(-c3ccccc3)c(=O)[nH]2)CC(C)O1 (stereo not given),>57,11%
O=C(c1ccco1)N1CCN(C(c2ccc(F)cc2)c2nnnn2CC2CCCO2)CC1 (stereo not given),>57,9%
O=C(CCC(=O)N1CCN(S(=O)(=O)c2ccccc2)CC1)c1cccs1,>57,4%
COc1ccc(Nc2nc(C(=O)NCCCN3CCOCC3)cs2)cc1,>57,?
CCc1nnc(NC(=O)C2CCN(C(=O)NC3CCCCC3)CC2)s1,>57,-2%
Cc1cccc(OC(C)C(=O)N(Cc2cccs2)C2CCS(=O)(=O)C2)c1C (stereo not given),>57,-1%
COC(=O)C/C=C\[C@@H](C)[C@@H](/C=N\OCC[C@H]1C=C[C@H](OC(C)=O)[C@@H](COC(C)=O)O1)NS(=O)(=O)c1ccc(C)cc1,nt,-7%[8 µM]
COc1ccccc1N1CCN(C(=O)CCCn2c(=O)[nH]c3ccsc3c2=O)CC1,>57,-11%
COc1ccc(S(=O)(=O)N(CC(=O)N2CCOCC2)c2cc(Cl)ccc2OC)cc1OC,>57,0%
Nc1nc(-c2ccc3c(c2)CCCC3)cs1,>57,?
O=C(NC1CCCCC1)c1cccnc1C(=O)O,>57,?
O=C(c1cc2ccccc2oc1=O)N(Cc1ccco1)CC1CCCO1 (stereo not given),>57,15%
COc1cccc(C(=O)Nc2ccc(-c3nc4ccccc4o3)c(O)c2)c1,>57,?

The final four records of the part before are carried over, then new ones follow:
Molecule,SmPrx2 inh,LT uptake inh
Nc1nc(-c2ccc3c(c2)CCCC3)cs1,>57,?
O=C(NC1CCCCC1)c1cccnc1C(=O)O,>57,?
O=C(c1cc2ccccc2oc1=O)N(Cc1ccco1)CC1CCCO1 (stereo not given),>57,15%
COc1cccc(C(=O)Nc2ccc(-c3nc4ccccc4o3)c(O)c2)c1,>57,?
Cc1ccccc1C1=NC(c2ccc(F)cc2F)ON1 (stereo not given),>57,-8%
O=C(NCc1cccnc1)c1ccc(CS(=O)(=O)c2ccc(Br)cc2)o1,>57,-10%
C=CCNC(=O)COc1ccc(Br)cc1Cl,>57,-15%
Cn1c(=O)cc(OCCCC(=O)NC2CCCC2)c2ccccc21,>57,3%
COc1ccc(OC)c(C(=O)COC(=O)C2CC3CCCC(C2)C3=O)c1 (stereo not given),>57,-2%
O=C(CSCc1ccc(Cl)cc1)NCC1CCCO1 (stereo not given),>57,2%
Nc1ccc(-c2nnc(-c3ccc(-c4ccccc4)cc3)o2)cc1,>57,0%
c1cncc(-c2nnc(C3CCCCC3)o2)c1,>57,?
Cc1nc(CSc2nnc3scc(-c4ccc(Cl)cc4)n23)cs1,>57,2%
O=C(CCN1c2ccccc2Sc2ccccc21)OCc1nnc(-c2ccccc2)o1,>57,-22%
CCOC(=O)c1[nH]c(C)c(/C(O)=C2\C(=O)C(=O)N(CCN(C)C)C2c2cccc(OC)c2OC)c1C (stereo not given),>57,0%
Cc1ccccc1S(=O)(=O)Cc1ccc(C(=O)N2CCN(C3CCCCC3)CC2)o1,>57,1%

Not all compounds are listed. The share of hits here may be higher or lower than overall.
